# Screens deposited in PubChem by ICCB-Longwood Screening Facility, Harvard Medical School.
# KSHV LANA nucl = LANA-nucleosome interaction inhibition; z-score (concentration not given with the values); AID 720717; FITC-LANA1-23 / chicken nucleosome fluorescence polarization; active compounds read low; 0.3% of 51,000 active;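 active means both repeat wells score below -2 in polarization z-score versus plate sample wells, excluding overly bright wells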;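 further: 100 nL library stock added to about 30 µL; numbers are from one replicate; some results filed as inactive read as strong as hits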
#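 System – purified chicken nucleosomes with FITC-labelled LANA N-terminal peptide (1-23) · Amount – 240 nM purified chicken nucleosomes (480 nM peptide binding sites), final · Also added – 50 nM FITC-LANA1-23 probe · Medium – TEN-BT buffer, pH 7.5 · Incubation – compound with peptide–nucleosome mix 10–45 min at room temperature · Detection – fluorescence polarization, ex 480 nm, em 535 nm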
# BasE inh = BasE siderophore biosynthesis inhibition; purified BasE, fluorescence polarization binding displacement; inhibition, % (test concentration not listed); 0.1% of 84,000 active; AID 485350;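 active means both replicates above 25% with normal brightness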;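 further: 0% = negative plate control signal and 100% = positive plate control signal; stock transfer was 100 nL into about 30 µL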
# The depositor's hits bear a star; nt = no result given; & = joins results of further samples. Only part of the results is shown; the hit share may differ from the screen's.
SMILES,KSHV LANA nucl,BasE inh
COc1ccc2oc(C(=O)NCCC(C)C)c(C)c2c1,nt,-4.0
CCN(CCC#N)c1ccc(/C=C(\C#N)C(=O)NC(C)C)c(C)c1,nt,-12
CCC(Sc1nc2cc(OC)c(OC)cc2c2nc(CCn3nc(C)cc3C)nn12)C(=O)NCc1ccco1 (stereo unspecified),-0.6,2.5
CC[N+](C)(CC)CCC[n+]1c(-c2ccccc2)c2cc(N)ccc2c2ccc(N)cc21,-3.4*,27&3.8
CCOC(=O)c1ccc(-n2c(N)c(C(=O)NCC3CCCO3)sc2=S)cc1 (stereo unspecified),0.43,0.5
CC1c2cccn2CCN1S(=O)(=O)c1ccccc1 (stereo unspecified),nt,1.2
CCN(Cc1cccc(Cl)c1Cl)C(=O)c1cnc(OC)cc1C(F)(F)F,-0.44,nt
CCCCN1C(=O)CCC(C(=O)O)C1c1ccccc1 (stereo unspecified),1.5,nt
O=C(Nc1ccccc1)NC1CS(=O)(=O)CC1O (stereo unspecified),2.2,0.0
CCOc1ccc(Br)cc1C(=O)Nc1c[nH]c(=O)[nH]c1=O,-0.35,nt
CC1Sc2cc(-c3ccc(Br)cc3)cn2C1=O (stereo unspecified),nt,-4.1
CCN(CC1COc2ccccc2O1)S(=O)(=O)c1cccs1 (stereo unspecified),nt,-0.5
CC(C(=O)O)n1cc(Cl)cn1 (stereo unspecified),-0.12,-1.8
O=S(=O)(c1ccc(N2CCCC2)nc1)N1CCCC1,nt,0.0
COc1ccc(C(=O)Nc2ccccc2)cc1S(=O)(=O)N1CCC(C)CC1,0.31,-2.3
COc1ccc(CN2C(=O)CC(Cc3ccccc3)C2=O)cc1OC (stereo unspecified),0.033,3.3
CCCCN=Cc1c(O)n(-c2ccc(Cl)cc2)c(=O)[nH]c1=O,0.26,-3.0
O=C(NCc1ccco1)c1cc(-c2ccccc2)on1,1.4,-3.8
Cc1ccc(C)c(NC(=S)NC2CC(C)CC(C)(C)C2)c1 (stereo unspecified),nt,1.5
O=C1CN(C(=O)/C=C/c2ccc(S(=O)(=O)NCc3ccco3)cc2)c2ccccc2N1,nt,0.5
CN(C)CCCNCc1ccccc1F,-0.098,-2.6
Cc1ccc(-c2n[nH]c(=S)n2C)cc1,1.7,0.1
CCCC12CCC(C(=O)O)(CC1)CC2,0.22,-1.2
O=C(NCn1c(=S)n(CNC(=O)c2cccnc2)c2ccccc21)c1cccnc1,nt,2.2
COc1ccc(C2=NOC(C(=O)N(C)C3CCCCC3)C2)cc1 (stereo unspecified),-0.37,-0.6
O=C(Nc1ccc2c(c1)OCO2)c1ccccc1NC(=O)C1CC(=O)N(C2CCCC2)C1 (stereo unspecified),nt,-1.2
COc1cccc(NCc2nnc(SCC(=O)N3CCc4ccccc43)n2C2CCCCC2)c1,nt,-0.5
CC(C)C(OC(=O)c1ccccc1)c1nccc2ccccc12 (stereo unspecified),nt,1.2
CCOC(=O)c1sc2nccc(Nc3ccccc3)c2c1N,-0.51,2.8
COc1cc(CNCc2nnc3ccccn23)cc(I)c1O,nt,0.9

# The last 5 records of the section before lead into the next:
SMILES,KSHV LANA nucl,BasE inh
O=C(Nc1ccc2c(c1)OCO2)c1ccccc1NC(=O)C1CC(=O)N(C2CCCC2)C1 (stereo unspecified),nt,-1.2
COc1cccc(NCc2nnc(SCC(=O)N3CCc4ccccc43)n2C2CCCCC2)c1,nt,-0.5
CC(C)C(OC(=O)c1ccccc1)c1nccc2ccccc12 (stereo unspecified),nt,1.2
CCOC(=O)c1sc2nccc(Nc3ccccc3)c2c1N,-0.51,2.8
COc1cc(CNCc2nnc3ccccn23)cc(I)c1O,nt,0.9
N#CSC(C#N)Cc1ccccc1 (stereo unspecified),0.31,-1.1
COc1ccc(C(=O)Nc2ccc(NC(=O)c3ccco3)cc2)cc1OC,0.2,2.4
CC(C)(C)c1ccc(/C=C/C(=O)NCCCn2ccnc2)cc1,nt,1.6
COc1cc(SC)ccc1C(=O)Nc1cccnc1,nt,0.8
COC(=O)c1nnn(-c2nonc2N)c1CSC#N,0.34,-1.5
Cn1cc(S(=O)(=O)N2CCCC2)cc1C(=O)N1CCN(C2CCCCC2)CC1,0.72,0.1
COc1ccc(C(=O)CSc2nc3c([nH]2)c(=O)[nH]c(=O)n3C)cc1,nt,-1.2
Cc1cc(Cl)ccc1Oc1cc(C(F)(F)F)cnc1C#N,0.16,nt
CCn1c(=S)ccc2cc(OC)ccc21,-0.68,0.1
CCn1nccc1C(=O)Nc1cc(C(=O)OC(C)C)cc(C(=O)OC(C)C)c1,nt,0.4
O=C(CSc1ccc2ccccc2c1)NCCN1C(=O)CSC1=O,nt,0.6
Cc1ccccc1NCC(=O)N/N=C\c1ccccc1,0.33,5.6
Cc1cc(C)n2nc(C(=O)OCc3cccc(S(=O)(=O)N(C)C)c3)nc2n1,nt,2.9
COc1ccc2c(c1)C(=O)N(c1ccc(Cl)cc1)C(=O)/C2=C/N1CC(C)OC(C)C1 (stereo unspecified),nt,0.9
CN1CCN(C/C=C/c2ccccc2)CC1,0.35,-0.2

# 5 compounds out of the list, ordered by molar mass, highest first:
SMILES,KSHV LANA nucl,BasE inh
Cn1cc(S(=O)(=O)N2CCCC2)cc1C(=O)N1CCN(C2CCCCC2)CC1,0.72,0.1
Cc1cc(C)n2nc(C(=O)OCc3cccc(S(=O)(=O)N(C)C)c3)nc2n1,nt,2.9
CCn1nccc1C(=O)Nc1cc(C(=O)OC(C)C)cc(C(=O)OC(C)C)c1,nt,0.4
COc1ccc(C(=O)Nc2ccc(NC(=O)c3ccco3)cc2)cc1OC,0.2,2.4
Cc1ccccc1NCC(=O)N/N=C\c1ccccc1,0.33,5.6

# Going on with the list.
SMILES,KSHV LANA nucl,BasE inh
CCN(CC)c1ncc(Br)cn1,0.65,-0.8
CC1=C(/C=C/C(C)=C/C=C/C(C)=C/C(=O)Nc2ccc(O)cc2)C(C)(C)CCC1,0.046&-0.061,-2.5
O=C(CSc1ncnc2sc3c(c12)CCCC3)N1CCCC1,nt,-8.3
NC(/N=C/c1ccccc1O)=N\S(=O)(=O)c1ccc(N=Cc2ccccc2O)cc1,-0.34,0.8
O=C(CSc1nc2cc3c(cc2c(=O)n1Cc1ccc2c(c1)OCO2)OCO3)NCCc1ccccc1,-0.061,0.1
Cc1ccc(S(=O)(=O)N2CCN(Cn3cnc4ccccc43)CC2)cc1C,0.59,-0.4
Cc1ccc(C(=O)OCC(=O)c2cc(C)n(Cc3ccco3)c2C)cc1,nt,-0.2
Cc1ccc(S(=O)(=O)c2cn(CC(=O)NC3CCCC3)c3nc(C)ccc3c2=O)cc1,-0.8,-6.0
COc1ccc(Cn2c(CCC(=O)Nc3ccc(CC#N)cc3)nc3cccnc32)cc1,-0.39,-2.6
CN1CCN(S(=O)(=O)c2ccc(SCc3ccc(F)cc3)nc2)CC1,nt,-0.2
CCN(CC)CC#CCOC(=O)C(O)(c1ccccc1)C1CCCCC1 (stereo unspecified),0.0015&-0.18,-1.1
O=C1CC(NNc2nc3ccccc3s2)C(=O)N1c1ccccc1 (stereo unspecified),-0.34,3.0
Cc1sc2ncn3cnnc3c2c1-c1ccccc1,nt,-0.2
Cc1ccc(Cl)cc1N1CC(O)=C(c2nc3ccccc3c(=O)[nH]2)C1=N,0.54,2.7
O=C(CN1CCCc2ccccc21)NN1C(=O)NC2(CCCCC2)C1=O,nt,3.0
CC(C)(CO)NC(=S)NCC1CCCO1 (stereo unspecified),nt,1.5
Cc1nn(C)c(C)c1NS(=O)(=O)/C=C/c1ccccc1,nt,2.6
COc1ccc(C(=O)OCC[N+]2(C)CCOCC2)cc1,nt,-1.1
CCc1c(C)c(C#N)c2nc3ccccc3n2c1N1CCCC1,-0.83,1.4
CCN1C(=O)SC(CC(=O)O)C1=O (stereo unspecified),-0.63,-1.9
CCCn1c(C)cc(/C=C(\C#N)C(=O)N(CC)c2nc3c(C)cccc3s2)c1C,nt,3.2
CCN1CCN(c2ccc(Nc3ccnc4cc5ccccc5cc34)cc2)CC1,nt,2.3
COc1ccc(OCc2nnc(SC(C)C(=O)Nc3ccc(N4CCOCC4)cc3)n2C)cc1 (stereo unspecified),nt,1.6
CCCNC(=O)CN1CCN(Cc2ccc(OCCC(C)C)cc2)CC1,nt,-2.7
CC(=O)NC1C(=O)N(c2ccccc2)N=C1C (stereo unspecified),0.95,-0.4
OC1CCCN(C(=S)NCc2ccccc2)C1 (stereo unspecified),0.052,2.5
CCOc1cc(-c2noc(CCCC(=O)Nc3cccc(C)c3C)n2)cc(Br)c1OC,0.33,0.4
O=C(CSC(=S)N1CCOCC1)c1ccccc1,0.41,-1.1
O=C(CSc1nc2ncc(Cl)cc2[nH]1)NN1C(=O)NC2(CCCCC2)C1=O,nt,0.4
CCCn1nc(C(=O)N2CCCCCCC2)c2ccccc2c1=O,nt,0.8
CC1(C)CC(=O)c2cnc(NC(=O)c3ccc(Cl)cc3)nc2C1,1.2,-0.1
COc1ccc(C2(O)CC3CCC(C2)N3c2cc(C)nc(-c3ccccc3)n2)cc1 (stereo unspecified),-0.55,-0.4
CCS(=O)(=O)c1nc(NC(C)=O)n[nH]1,2.3,-3.0
C=CCC(CN)(CC=C)c1ccc(OC)c(OC)c1,-0.026,-3.5
O=c1nc2n(c3sc4c(c13)CCCC4)CC(O)=C2c1nc2ccccc2s1,nt,-5.6
O=C(CSc1nc(-c2ccccc2)cs1)N1CCN(S(=O)(=O)c2ccccc2)CC1,nt,1.4
COc1ccc(N2CCN(Cc3cc(C(C)C)c(C)cc3O)CC2)cc1,nt,0.3
Cc1cc(NC(=O)CCCC(=O)O)n(C)n1,nt,2.8
Cc1ccc(CN2CC(C(=O)NCc3ccc(S(N)(=O)=O)cc3)CC2=O)cc1 (stereo unspecified),nt,-0.8
COC(=O)c1ccccc1NC(=O)c1nc2ncccn2n1,-0.67,-0.9
Cc1noc(C)c1/C=N/NC(=O)CC12CC3CC(CC(C3)C1)C2,nt,-3.3
c1ccc(-n2ncc3c(OCc4nc5ccccc5s4)ncnc32)cc1,nt,0.4
CCc1nnc2c(Nc3ccc(O)cc3)nc3ccccc3n12,nt,2.4
CCOc1cc(-c2cc(I)c(O)c(OC)c2)cc(=O)c2c(C)oc(C)c12,0.8,-1.1
COc1ccc(Nc2nc(NCCO)c3ccccc3n2)c(OC)c1,-0.38,-1.8
O=C(O)c1cc(NC(=O)c2cccs2)cc(C(=O)O)c1,nt,0.6
CCC(c1nnnn1Cc1ccco1)N(Cc1cccs1)Cc1cc2c(C)cc(C)cc2n2nnnc12 (stereo unspecified),-0.28,1.3
COc1ccc(S(=O)(=O)NCc2ccccc2)cc1,nt,1.1
CNS(=O)(=O)c1ccc2[nH]c(=O)cc(C)c2c1,-0.067,3.7
CC(C)CCn1c(=O)c2ccccc2n2c(SCc3cc(Cl)cc4c3OCOC4)nnc12,nt,-0.8
Cc1ccccc1NCc1nc[nH]c1C,-0.8,1.3
COc1ccccc1NC(=O)Nc1nc(CC(=O)NCc2cccs2)cs1,0.79,-0.1
S=c1nn[nH]n1Cc1cccs1,nt,2.5
O=C(NC1CCC(O)CC1)c1cc(Cl)c(O)c(Cl)c1 (stereo unspecified),nt,2.4
COc1cccc(CN(C)CCN)c1,0.2,-0.6
O=C1C2C3CC4C5C3C1C5C(F)(F)C42 (stereo unspecified),1,-0.9
O=C1C2(CCC13COC(c1cc(Br)ccc1O)OC3)COC(c1cc(Br)ccc1O)OC2 (stereo unspecified),nt,1.1
O=C(CSc1ncnc2nc[nH]c12)N1CCOCC1,0.23,-1.1
Oc1ccc2c(c1)oc1cc(O)ccc12,0.41,5.0
Clc1ccc(SCCCCn2cncn2)cc1,-1.7,-0.1

# Complete entries as entered above:
# Record of CCC(c1nnnn1Cc1ccco1)N(Cc1cccs1)Cc1cc2c(C)cc(C)cc2n2nnnc12 (stereo unspecified) → KSHV LANA nucl = -0.28; BasE inh = 1.3
# Record of Clc1ccc(SCCCCn2cncn2)cc1 → KSHV LANA nucl = -1.7; BasE inh = -0.1

# Further entries follow.
SMILES,KSHV LANA nucl,BasE inh
CC(=O)N(Cc1cc2cc(C)c(C)cc2n2nnnc12)CC1COCCO1 (stereo unspecified),0.95,-0.5
c1ccc2c(c1)C(Nn1cnnc1)=N/C2=N\n1cnnc1,nt,1.1
O=C(COc1ccc(-n2ccnc2)cc1)Nc1cccc(Cl)c1,nt,-3.9
Cn1nc(C(F)(F)C(F)F)cc1-c1ccccc1O,-0.31,-0.5
O=S(=O)(c1cc(Cl)ccc1Cl)N(Cc1ccco1)C(F)F,nt,0.9
COc1ccccc1C1CCN(CCCOc2ccc(Cl)cc2)CC1,nt,1.7
COc1cc(C2CC(=O)NC(SCC(=O)Nc3nccs3)=C2C#N)cc(OC)c1OC (stereo unspecified),0.051,0.5
COC(=O)c1cc(N2CCCCC2)ccc1NCc1cc2ccc(OC)cc2[nH]c1=O,0.73,1.3
Cc1cccc(N=Cc2c(O)n(-c3ccccc3)c(=O)c3ccccc23)c1,nt,-0.3
CC(C)/C=C1\CCCCC1N(C)C(=O)NC(C)C (stereo unspecified),-1.1,2.3
CCN(CC)S(=O)(=O)c1cccc(-c2n[nH]c(=S)n2-c2ccccc2)c1,nt,-1.3
Clc1ccccc1CSc1nnnn1-c1ccccc1,-1,1.7
CC1CCCC(NC(=O)CCCn2ncn3c(cc4occc43)c2=O)C1C (stereo unspecified),-0.049,-0.5
Cn1nnc2cc(C(=O)Nc3cccnc3)ccc21,-0.83,0.1
CCCNC(=O)c1ccccc1NC(=O)c1ccccc1NS(C)(=O)=O,-1.2,2.0
CCOC(=O)N1CCC(NC(=O)c2cccc3c2C(=O)N(CCOC)C3)CC1,-0.85,1.6
CC(C)(C)Sc1nc2ccccc2[nH]c1=S,nt,1.9
CCOC(=O)CN1CC23C=CC(O2)C(C(=O)Nc2ccc(C(C)C)cc2)C3C1=O (stereo unspecified),0.73,0.4
